# Assay outcomes as filed in PubChem.
# Cruzain inh noDet: inhibitors of Trypanosoma cruzi cruzain without detergent; Potency, µM, without a hit: max response, negative = inhibition, hits mostly inhibitors; AID 1476; hit rate 2.3% among 200,000; purified cruzain, Z-FR-AMC fluorescence, no detergent; P25779;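 note: plate controls were enzyme without inhibitor for no effect and buffer without enzyme for full effect; nearly all actives have a fitted effect of over 40% in size; top concentration of the series not given in the record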
# Target sequence (P25779 123-467 limits assumed): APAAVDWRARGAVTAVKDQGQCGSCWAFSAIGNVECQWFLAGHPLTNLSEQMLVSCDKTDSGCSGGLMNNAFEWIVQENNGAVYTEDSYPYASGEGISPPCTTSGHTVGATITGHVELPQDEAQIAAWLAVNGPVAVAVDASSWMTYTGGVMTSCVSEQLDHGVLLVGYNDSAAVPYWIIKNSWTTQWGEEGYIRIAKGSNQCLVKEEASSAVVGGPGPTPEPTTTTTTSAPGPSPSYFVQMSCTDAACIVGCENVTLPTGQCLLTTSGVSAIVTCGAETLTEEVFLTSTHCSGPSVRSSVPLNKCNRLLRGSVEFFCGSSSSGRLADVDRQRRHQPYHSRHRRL
#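 Purified cruzain at 1.5 nM, pre-incubated 15 min with compound at room temperature in 100 mM sodium acetate pH 5.5, 5 mM DTT, 0.00005% Triton X-100. Reaction started with 2 uM Z-FR-AMC; AMC fluorescence increase over 60 s gives rate.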
# RE007 growth inh: less growth of the S. pombe RE007 Vpr strain; S. pombe RE007 Vpr strain, BacTiter-Glo ATP luminescence, 24 h; control for the full effect not named in the record; AID 651644; Potency, µM (titrated, usually from 92.2 µM), inactives show at the highest dose activity change, negative = less growth; hit rate 0.21% among 360,000; active = well fitted falling curve with a large enough effect; inconclusive = small, poorly fitted or top-dose-only effect; inactive = no such curve, though single readings can be large or run the other way;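 note: % is set by controls: 0 for no effect and ±100 for the full control effect; nearly all actives have a fitted effect of over 50% in size; the assay follows cell death caused by Vpr and the record does not say whether a fall means rescue or toxicity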
#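 Fission yeast strain RE007, carrying one chromosomally integrated HIV-1 vpr copy, was seeded at OD 0.01 in PMG+AL medium with 23 nL pinned compound. After 24 h at 30 °C and 99% humidity, viability was read by BacTiter-Glo luminescence.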
# Lassa entry inh: blocks Lassa virus binding to or entry into cells. hit rate 1.2% among 300,000. Lassa virus pseudotype entry inhibition, cell reporter; control for the full effect not named in the record. Potency, µM (series often up to 37.9 µM), without a hit: at the top dose activity change, negative = inhibition, usual class: inhibitors; active means well fitted inhibition curve with a large enough effect; inconclusive means small, poorly fitted or top-dose-only effect, or effect the other way; inactive means flat fitted curve, though single readings scatter; tested in HEK293 cells; note: % is set by controls: 0 for no effect and ±100 for the full control effect; nearly all actives have a fitted effect of over 50% in size; luciferase read-out
# NS1 function inh: influenza NS1 inhibition; Potency, µM (top dose mostly 46.1 µM), inactives show top-dose activity, positive = more growth; S. cerevisiae slowed by influenza A NS1, growth recovery by OD600; AID 2326; hit rate 0.4% among 270,000; active means well fitted rising curve with a large enough effect; inconclusive means small, poorly fitted or top-dose-only effect; inactive means no such curve, though single readings can be large or run the other way; note: nearly all actives have a fitted effect of over 50% in size
#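 In this qHTS, NS1 from influenza A is expressed in budding yeast, where it slows growth. Cells are switched from glucose to 2% galactose medium (pH 6.0, -URA), treated with compound, and growth recovery is read at OD600.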
# SARS PLpro yeast: SARS-CoV PLP inhibition in yeast; S. cerevisiae expressing SARS-CoV PLpro, growth rescue; control for the full effect not named in the record; Potency, µM (highest dose often 32.9 µM), inactives show at the top dose activity, positive = growth rescue; hit rate 0.19% among 330,000; AID 485353; active means well fitted rising curve with a large enough effect; inconclusive means small, poorly fitted or top-dose-only effect; inactive means no such curve, though single readings can be large or run the other way; note: 0% is about no effect; nearly all actives have a fitted effect of over 55% in size; growth read by luminescence after 48 h
# Cruzain Triton: blocks cruzain activity in presence of Triton detergent. P25779. purified cruzain, Z-FR-AMC fluorescence, 0.01% Triton. Potency, µM, for inactives: max response, negative = inhibition, actives largely listed as inhibitors. hit rate 0.43% among 200,000. AID 1478;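 note: plate controls were neutral wells for no effect and buffer without enzyme for full effect; nearly all actives have a fitted effect of over 40% in size; top concentration of the series not given in the record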
#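 Read-out: AMC fluorescence (360 nm excitation, 450 nm emission), four reads over 2 min, first-to-third difference used. Conditions: cruzain 1.5 nM, Z-FR-AMC 2 uM, pH 5.5 acetate, 5 mM DTT, 0.01% Triton X-100.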
# StopGo reporter: FMDV 2A StopGo reporter, luciferase signal; human cells with a luciferase reporter of 2A StopGo recoding; control for the full effect not named in the record; hit rate 1.2% among 410,000; Potency, µM (series often up to 57.9 µM), for the others: top-dose signal change, negative = less light; active = well fitted falling curve with a large enough effect; inconclusive = small, poorly fitted or top-dose-only effect; inactive = no such curve, though single readings can be large or run the other way; tested in HEK293T cells; note: % is set by controls: 0 for no effect and ±100 for the full control effect; nearly all actives have a fitted effect of over 45% in size; luciferase light after 4 h
# Marburg entry inh: blocks Marburg virus binding to or entry into cells | hit rate 1.8% among 300,000 | Potency, µM (doses to about 37.8 µM), inactives show top-dose activity change, negative = inhibition, hits mostly inhibitors | Marburg virus pseudotyped entry inhibition, cell reporter; control for the full effect not named in the record; about a third of the inactives were read at about 46 µM; active = well fitted inhibition curve with a large enough effect; inconclusive = small, poorly fitted or top-dose-only effect, or effect the other way; inactive = flat fitted curve, though single readings scatter; tested in HEK293 cells; about a fifth of its hits are not listed in these tables; note: % is set by controls: 0 for no effect and ±100 for the full control effect; luciferase read-out
# Active calls of the source: *; ? = inconclusive; . = not tested or not shown; [ ] = remark or other dose. Unless noted, calls come from the whole dose curve; as a rule, active = well fitted curve in the direction sought with a large enough effect; inconclusive = small, poorly fitted or top-dose-only effect, or another doubt; inactive = no such curve, though single readings can be large; an effect the other way counts as inactive or inconclusive. Potency is the fitted concentration of half-maximal effect.
SMILES,Cruzain inh noDet,RE007 growth inh,Lassa entry inh,NS1 function inh,SARS PLpro yeast,Cruzain Triton,StopGo reporter,Marburg entry inh
CC[N+](CC)(CCO)CCCN1C(=O)C2CC=C(Cl)CC2C1=O (stereo not drawn),-5%,-2%,0%,1%,-1%,4.4%,-9%,0%[46.1 µM]
Cc1ccc(NC(=O)Cn2cc(S(=O)(=O)N3CCCC3)c(S(=O)(=O)N3CCCC3)c2)c(C)c1,-3%,.,-1%[46.1 µM],.,.,-0.5%,-10%,.
CC(=O)c1c(C)[nH]c(C(=O)CSc2nc3ccc(C)cc3[nH]2)c1C,7%,-7%,-5%,5%,4%,-13%,?,-30%
COc1ccc(/C=C(/C(=O)NCc2ccccc2)c2ccccc2)cc1,-7%,-11%,-17%,-57%,-40%,-3.8%,-11%,-2%
CC1CN(S(=O)(=O)c2ccc(C(=O)Nc3ccc(S(=O)(=O)Nc4nccs4)cc3)cc2)CC(C)O1 (stereo not drawn),15%,.,2%,17%,-5%,-2.7%,-8%,14%
COc1ccccc1C(=O)Nc1sc2c(c1C#N)CCC2,.,5%,3%[46.1 µM],-7%,0%,.,28%,-6%[46.1 µM]
O=C(c1ccc2c3c(cccc13)CC2)C1CCCN(C(=O)c2cccnc2)C1 (stereo not drawn),.,15%,.,0%,0%,.,-24%,.
CCOP(=O)(OCC)c1nc(/C=C/c2ccccc2)oc1NCc1ccccc1,?,-4%,-1%,9%,10%,22%,-25%,?
Cc1nnc(Nc2ccc(Cl)c(C(F)(F)F)c2)[nH]c1=O,.,47%,-12%[46.1 µM],.,4%,.,-9%,10%[46.1 µM]
O=C1CCCN1c1ccc(S(=O)(=O)N2CCN(c3ccccn3)CC2)cc1,6%,-16%,-2%,-15%,1%,4.2%,-23%,-21%
COc1ccc(N(CC(=O)Nc2cccc(OC)c2)S(=O)(=O)c2c(C)nn(C)c2C)cc1,?,0%,-15%,-16%,0%,2.7%,14%,?
COC(=O)CCC(NC(=O)OCc1ccccc1)C(=O)NC(CC(C)C)C(=O)OC (stereo not drawn),14%,24%,14%,2%,-4%,-7.2%,-3%,5%
C=CCN(C(=O)CCC(=O)Nc1cc(C)on1)C(C(=O)NC(C)(C)C)c1cccc(OC)c1OC (stereo not drawn),24%,11%,-12%,-1%,2%,-0.8%,-2%,?
OC(CN1CCN(c2ccccc2)CC1)Cn1c2ccccc2c2ccccc21 (stereo not drawn),2%,0%,?,2%,2%,-6.1%,?,13%[46.1 µM]
CCOc1ccc(C(=O)NC(=S)Nc2ccc(NC(=O)c3ccco3)c(C)c2)cc1[N+](=O)[O-],14%,-4%,.,-1%,3%,-3.6%,-2%,-8%
CC(=O)Nc1ccc(S(=O)(=O)NCCC(=O)N2CCCCC2)cc1,.,-2%,-2%,.,-1%,.,-9%,-6%
O=C(Cc1cccs1)NCc1ccc2c(c1)OCO2,-9%,7%,-3%,5%,1%,-5.2%,60%[activator],9%
CCOC(=O)C1CCCCC12C(C#N)=C(N)Oc1n[nH]c(C)c12 (stereo not drawn),-7%,-6%,2%,-4%,2%,4.2%,-16%,-7%
C[C@H]1C=C(C(=O)N2CCOCC2)O[C@@H](OCc2ccc(CO)cc2)C1,.,7%,.,0%,-1%,.,-14%,.
CCc1ccc(CNC(=O)Cn2nc(-c3ccc(C)cc3)ccc2=O)cc1,7%,.,?,.,0%,0.3%,-3%,.
O=C(N/C(=C/c1cccnc1)C(=O)N1CCOCC1)c1ccccc1F,.,0%,?,0%,0%,.,-14%,2%
Cn1ncc2c(Nc3ccc4ccccc4c3)ncnc21,-3%,-18%,21%,-32%,-3%,-7.3%,.,?
Cc1ccc(-c2cc3nc(C)cc(C)n3n2)cc1,.,-20%,2%,-6%,-1%,.,4%,-27%[46.1 µM]
CCCCCCC/C(C)=N/NC(=O)CC(=O)NCCc1ccccc1,-10%,-22%,1%,19%,-25%,4.8%,-9%,?
Cc1cc(C(=O)CNCc2ccco2)c(C)n1-c1ccc(F)cc1,7%,11%,-12%,2%,-9%,-1.3%,.,?
NC(=O)c1ccc(NC(=O)CS(=O)(=O)c2cn(CC(=O)N3CCCCC3)c3ccccc23)cc1,.,2%,18%[46.1 µM],4%,4%,.,4%,-24%[46.1 µM]
COc1ccc(S(=O)(=O)N(C)CC(=O)N2CCN(Cc3ccccc3)CC2)cc1C,6%,0%,-11%,-9%,-5%,-2.6%,-26%,?
Cc1ccc(/C=N/Nc2nncc(-c3ccccc3)n2)o1,.,-19%,-3%,.,-3%,.,8%,-4%[46.1 µM]
COCc1nc2ccccc2n1Cc1ccc(Br)cc1,6%,10%,?,-99%,-7%,-2.0%,21%,-14%
OCCC1CN(Cc2cccc3c2OCO3)CCN1C1CCCCC1 (stereo not drawn),.,-8%,.,7%,1%,.,-18%,.
CC(C)NC(=O)c1ccc(-c2ccccc2C(F)(F)F)o1,13%,5%,?,2%,-2%,-6.2%,.,0%
C/C(=N\NC(=O)NC1CCCCC1)C1CCCCC1,13%,3%,-17%,0%,12%,-5.7%,-6%,0%
CCCc1cc(=O)[nH]c(Nc2ccc(C)c(O)c2)n1,-8%,.,4%[46.1 µM],.,.,-5.7%,0%,2%[46.1 µM]
S=C(NCc1ccc2c(c1)OCO2)Nc1ccc2nsnc2c1,.,2%,19%,-5%,-5%,.,34%[activator],-36%[46.1 µM]
Cc1cc(/C=C2\SC(=O)N(C)C2=O)c(C)n1-c1ccc(O)cc1,.,19%,.,-103%,-15%,.,?,.
COc1cccc(CNC(=O)C(=O)Nc2ccc3nc4n(c(=O)c3c2)CCCCC4)c1,-6%,.,8%[46.1 µM],.,.,-1.4%,-13%,9%[46.1 µM]
CNC(=O)c1nn(-c2ccc(C)cc2)ccc1=O,-13%,13%,0%,-2%,-2%,-1.2%,-13%,8%
CCOC(=O)C1=C(C)NC(=O)NC1c1ccc(OCC(=O)OC)c(OC)c1 (stereo not drawn),6%,14%,-1%,2%,4%,3.5%,0%,-11%
COc1cc(/C=N/O)ccc1OCc1ccc(C(=O)O)cc1,-5%,-5%,?,0%[9.22 µM],-8%,-1.9%,4.5µM*,0.1µM*
COCCN1Cc2cccc(C(=O)Nc3cccc(OC)c3)c2C1=O,4%,1%,-24%,-15%,7%,3.4%,7%,?
CCOC(=O)c1nn(-c2ccccc2)c2nnc(Cc3ccc(Cl)cc3)c(=O)n12,-3%,-11%,19%,-7%,3%,-5.3%,10%,20%
CCN=C1S/C(=C\c2cn(C(C)=O)nc2-c2ccccc2)C(=O)N1CC,?,-18%,?,-3%,-9%,-5.3%,0%,?
CCN(CCCNC(=O)CCc1nc(-c2ccc(OC)cc2)no1)c1cccc(C)c1,29%,-3%,?,-62%,-2%,-3.4%,-26%,?
CC(C)c1ccc(CN(C(=O)c2cccs2)C2CCS(=O)(=O)C2)cc1 (stereo not drawn),.,9%,?,-3%,3%,.,?,-12%[46.1 µM]
Cc1ccc(CCNC(=O)C2CCC(=O)N(Cc3cccc(F)c3)C2)cc1 (stereo not drawn),.,1%,-15%,0%,-9%,.,3%,6%
O=C(CSc1ccc(Cl)cc1)Nc1cc(-c2nc3ncccc3o2)ccc1Cl,?,.,.,1%,-1%,-1.8%,.,.
COCCCNc1nnc(Cc2ccc(Cl)cc2)c(=O)[nH]1,.,12%,.,1%,1%,.,-28%,.
COc1ccc(-c2noc(CN(C(=O)c3ccc4c(c3)OCO4)C(C)C)n2)cc1OC,.,-9%,?,.,-14%,.,?,2%
COc1ccc(CC(=O)Nc2sc3c(c2C(N)=O)CCCC3)cc1,.,1%,-16%[46.1 µM],5%,0%,.,-13%,-3%[46.1 µM]
COc1ccc2c(c1)[C@@]13CCCC[C@H]1[C@@H](C2)NCC3,5%,.,?,-1%,.,7.0%,.,18µM*
O=C(CCS(=O)(=O)c1ccccc1)Nc1ccccn1,.,13%,?,4%,0%,.,4%,8%[46.1 µM]
CCS(=O)(=O)c1ccc(C(=O)Nc2ccccc2OC)c(Cl)c1Cl,.,4%,-22%[46.1 µM],-3%,2%,.,-23%,7%[46.1 µM]
c1cnc2ccc(-c3ccc4ncccc4c3)cc2c1,.,-31%,4.5µM*,-54%,-6%,.,-25%,?
CCOC(=O)c1c(NC(=O)c2ccc(S(=O)(=O)N(C)C)cc2)sc2c1CCN(C)C2,-13%,.,?,.,.,-3.6%,-4%,.
COc1ccc(CNS(=O)(=O)c2cc3c(cc2Cl)N(C(C)=O)CCO3)cc1,2%,.,-29%[46.1 µM],.,.,-4.9%,57%[activator],.
CSc1nnnn1-c1ccc(C(=O)O)cc1,-1%,16%,14%,5%,-5%,3.7%,-21%,1%
COc1cc(OC)cc(C(=O)N2CCCc3ccccc32)c1,-3%,-9%,-12%,-61%,-4%,0.6%,.,-11%
CCN(C(=O)c1ccc(NC(C)=O)cc1)c1ccccc1,-3%,4%,5%,3%,4%,3.2%,-12%,2%
Cc1ccc(S(=O)(=O)NCc2ccccc2)cc1C(=O)N1CCCC(C(F)(F)F)C1 (stereo not drawn),.,-7%,-17%,.,0%,.,0%,?
COc1ccc(OCC(=O)Nc2ccc3nc(C)sc3c2)cc1,.,-29%,4%,.,0%,.,1%,5%[46.1 µM]

# Further structures follow.
SMILES,Cruzain inh noDet,RE007 growth inh,Lassa entry inh,NS1 function inh,SARS PLpro yeast,Cruzain Triton,StopGo reporter,Marburg entry inh
CC12CCC(C(=O)NNc3ccccc3)(C(=O)C1=O)C2(C)C (stereo not drawn),.,7%,.,-5%,-2%,.,-5%,.
Cc1ccc(Nc2cc(C)nc3ncnn23)c(C)c1,.,-9%,?,-1%,2%,.,1%,?
CCc1nc(SCc2ccc(OCC(C)C)cc2)n[nH]1,.,-12%,?,-141%,-16%,.,6%,7.9µM*
COc1ccccc1NC(=O)Nc1cccc(C)n1,.,-16%,.,-13%,3%,.,16%,.
Cn1c(=O)c2c(nc(Cc3ccccc3)n2C)n(C)c1=O,.,15%,-6%[46.1 µM],3%,-2%,.,-16%,10%[46.1 µM]
